High-throughput results: PubChem BioAssay, several laboratories
UUG fidelity – modulators of yeast start codon fidelity, primary screen, whole organism, S. cerevisiae, single point, plate reader; S. cerevisiae UUG-firefly luciferase reporter, luminescence/redox ratio; activity score, % at 18.7 µM; 350,000 tested, 0.13% active;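 active means replicate mean at a twofold rise or more, about +100% in these data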;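 further: firefly luciferase made from a UUG start codon reports start codon fidelity; reporter light over untreated wells divided by growth signal over untreated wells; some hits fall short of that in this replicate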
MT1-MMP act inh – blockers of MT1-MMP proenzyme processing, primary screen, HT1080 RFP-PRO-GFP cells, GFP/RFP fluorescence. 360,000 tested, 0.061% active. GFP/RFP ratio change, % at 20 µM. AID 651647, 2012. Matrix metalloproteinase-14 (Homo sapiens), P50281. GFP/RFP ratio fluorescence, overnight; percent of plate control window, DMSO zero;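 active means GFP/RFP ratio change of at least 30% with cell ATP level not reduced by more than half and red fluorescence within 50% of control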; further: strong numbers were not always called active
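Test system: HT1080 cells expressing an RFP-PRO-GFP fluorescent reporter construct / Compound dosing: single-point 20 µM compound, 1% DMSO / Schedule: cells overnight before dosing, compound overnight, 37 °C, 5% CO2 / Evaluation: GFP/RFP fluorescence ratio / Control set: DMSO and RFP-L50D-GFP cell wells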
PABP FP inh – PABP poly(A) RNA binding inhibitors, primary screen, biochemical, fluorescence polarization, uHTS; inhibition, % at 35 µM; 290,000 tested, 1% active; Polyadenylate-binding protein 1 (Homo sapiens), P11940;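 active means 50% or more with normal probe brightness, or confirmed in later tests; inconclusive means above 50% with abnormal brightness, or retests that disagree; inactive means below 50% or failed in later tests; about a fifth of its hits are not listed in these tables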;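 further: calls also rest on retests at 20 µM and on dose response follow-up; controls were probe without protein and protein plus probe with vehicle; some compounds called inactive have numbers as strong as hits; many hits fall short of the cut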
Target sequence (P11940 whole entry, looked up): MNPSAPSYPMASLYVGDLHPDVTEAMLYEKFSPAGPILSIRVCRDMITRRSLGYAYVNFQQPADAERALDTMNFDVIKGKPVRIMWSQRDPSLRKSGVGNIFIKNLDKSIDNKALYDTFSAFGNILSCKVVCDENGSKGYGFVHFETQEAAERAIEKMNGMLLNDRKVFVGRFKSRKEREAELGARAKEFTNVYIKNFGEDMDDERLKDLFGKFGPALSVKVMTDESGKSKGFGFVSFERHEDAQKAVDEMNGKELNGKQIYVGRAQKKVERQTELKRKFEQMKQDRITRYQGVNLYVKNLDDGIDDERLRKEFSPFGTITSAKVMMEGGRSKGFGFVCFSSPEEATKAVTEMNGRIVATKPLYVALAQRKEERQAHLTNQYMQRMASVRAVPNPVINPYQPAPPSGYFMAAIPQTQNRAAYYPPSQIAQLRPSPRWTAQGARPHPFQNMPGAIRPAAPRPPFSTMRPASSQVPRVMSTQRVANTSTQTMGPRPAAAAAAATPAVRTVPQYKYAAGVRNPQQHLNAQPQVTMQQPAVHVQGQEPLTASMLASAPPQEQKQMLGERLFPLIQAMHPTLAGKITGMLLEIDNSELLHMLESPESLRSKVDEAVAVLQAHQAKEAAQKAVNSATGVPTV
Rce1 inhib – yeast Rce1p protease inhibitors, primary screen, biochemical, fluorescence, cell-free homogeneous. AID 2563, 2010. CAAX prenyl protease 2 (Saccharomyces cerevisiae (strain ATCC 204508 / S288c)), Q03530. yeast membranes, quenched prenylated peptide cleavage fluorescence. calls only. 290,000 tested, 0.27% active;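 active means fall in fluorescence gain of 50% or more versus controls, with final raw signal at or below 3038400; inconclusive means same 50% fall but final raw signal above 3038400; inactive means fall in fluorescence gain under 50%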;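 further: plate controls were neutral control wells for no effect and wells lacking membranes for full effect; tested at 10 µM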
eIF4H FP inh – human eIF4H binding inhibitors, primary screen, translation initiation inhibitor project, biochemical, uHTS, fluorescence polarization; 290,000 tested, 0.94% active; Eukaryotic translation initiation factor 4H (Homo sapiens), Q15056; eIF4H fluorescence polarization binding assay; AID 2012, 2009; inhibition, % at 35 µM;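 active means 50% or more with normal probe brightness, or confirmed in later tests; inconclusive means above 50% with abnormal brightness, or retests that disagree; inactive means below 50% or failed in later tests; about a fifth of its hits are not listed in these tables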;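 further: calls also rest on retests at 20 µM and on dose response follow-up; 0% = protein and probe with vehicle and 100% = probe without protein; strong numbers were not always called active; many hits fall short of the cut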
HIV Env fusion – inhibitors of HIV-1 Env-driven cell-cell fusion, primary screen, HeLa-JRFL effector, CEM21 target cells, luciferase; inhibition, % at 12.3 µM; 360,000 tested, 1.1% active; AID 651610, 2012;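 active means mean replicate inhibition score of at least 50 and every replicate individually at or above 50; inconclusive means only one of the two criteria met; inactive means mean below 50 and not all replicates reaching 50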;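 further: 0% = plate neutral controls and 100% = maraviroc near 300 nM; one replicate is shown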
CSC inhib – cancer stem cell viability inhibitors, primary screen, luminescence; cancer stem cell-like cells viability; inhibition, % at 7.5 µM; 300,000 tested, 1.1% active; AID 2717, 2010;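 active means mean at 75% or more and at least half the replicates too; inconclusive means mean and replicates disagree; tested in HMLE shEcad cells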;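 further: 0% = median of negative and 100% = median of positive control wells; the first replicate is given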
eIF4H FP inh retest – also measured in eIF4H FP inh; calls as there; inhibition, %; compound at 20 µM; confirmation average;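 mean of two retest wells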
PABP FP inh retest – also measured in PABP FP inh; calls as there; inhibition, %; compound at 20 µM; confirmation repeats;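 mean of two retest wells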
MT1-MMP act inh RFP – further read-out of MT1-MMP act inh, marked with its call; RFP signal change, %; measured here: RFP expression control read;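 0 = vehicle wells; hits needed this value within 50% of zero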
An asterisk follows results filed as active; i = inactive; ? = inconclusive; . = no result given.

SMILES | UUG fidelity | MT1-MMP act inh | MT1-MMP act inh RFP | PABP FP inh | Rce1 inhib | eIF4H FP inh | HIV Env fusion | CSC inhib | others
CCOc1ccc(-c2nc(C#N)c(NCC(C)C)o2)cc1 | -6.6 | 6.7 | -6.1 | -8.9 | i | 0.3 | -61.9 | 1.1
C=CCc1ccccc1OCC(=O)N/N=C/c1ccccc1OCC | . | 4.7 | 3.5 | 11.8 | i | -8.8 | -3.0 | .
CC1(C(=O)NS(=O)(=O)c2ccc(F)cc2F)CCN1C(=O)c1cccc(F)c1 (configuration not stated) | -1.0 | -10.6 | 2.6 | . | . | . | -5.7 | .
CCCC(O)(CCC)C(=O)NN(C(=O)CCl)c1cccc(C)c1 | . | -6.7 | -7.0 | -5.9 | . | 3.5 | 16.2 | -0.3
COc1ccc(-n2cnnc2SCC(=O)Nc2cccc([N+](=O)[O-])c2)cc1 | . | -2.7 | 3.6 | -8.1 | i | 9.9 | 11.5 | -0.2
Cc1nc(-c2nnc(SCC(=O)Nc3ccc(C(F)(F)F)cc3)n2C)cs1 | -22.7 | 7.2 | -1.7 | 7.5 | i | -11.2 | 4.0 | -2.1
COc1c(Cl)cc(Cl)cc1C(=O)Nc1ccc(C(=O)O)cc1 | -13.2 | -1.2 | 5.7 | 12.6 | i | -8.3 | . | -11.6
CCc1ccc(C2=CC(c3cc(Br)ccc3F)n3ncnc3N2)cc1 (configuration not stated) | -20.1 | -27.9 | 3.0 | -4.3 | . | -9.7 | 25.9 | 6.7
CC(C)(C)OC(=O)C[C@@H]1C/C=C\C[C@@H](CC(=O)N[C@H](CO)Cc2ccccc2)C(=O)NC[C@@H](c2ccccc2)OC1=O | 26.7 | -3.8 | -1.1 | . | . | . | -23.3 | 0.5
COc1ccccc1NC(=S)N1CCN(C(c2ccccc2)c2ccccc2)CC1 | -26.6 | -19.1 | -6.7 | 53.6 | i | -4.0 | 7.0 | 8.6 | eIF4H FP inh retest=-6.3;PABP FP inh retest=4.8
Cc1cccc(NC(=O)NNC(=O)c2cc3ccccc3cc2O)c1C | . | -9.7 | 5.3 | 20.1 | i | 9.0 | 0.4 | -5.8
Nc1nc2ccc([N+](=O)[O-])cc2[nH]1 | 1.8 | -2.6 | 1.8 | 7.9 | i | -1.7 | -9.6 | -3.1
CN(C)c1ccc(CNC(=O)C2(C)Cc3c(-c4cccc(C(F)(F)F)c4)ccnc3O2)cc1 (configuration not stated) | -5.6 | -7.4 | -14.0 | . | . | . | -13.5 | .
CC(CC(=O)Nc1cccnc1)c1ccccc1 (configuration not stated) | -1.8 | 0.2 | 4.9 | 0.1 | i | -9.2 | 24.2 | -3.7
Cc1cccc(N2CCN(C(=O)CCC(=O)N3Cc4ccccc4Oc4ncccc43)CC2)c1C | -2.1 | -3.7 | -8.7 | 12.3 | i | 1.8 | 4.4 | -7.0
O=C(CCn1c(=O)sc2ccccc21)NCCC1=CCCCC1 | -9.4 | 3.9 | 3.6 | 9.3 | . | -0.8 | . | 2.1
COc1ccccc1CCNC(=O)CC1C(=O)NCCN1CCCc1ccccc1 (configuration not stated) | 1.4 | . | . | -0.3 | i | -4.8 | 11.8 | 11.0
Cc1cccc(Nc2nnc(SCC(=O)NC(=O)CN3CCCC3=O)s2)c1 | -16.3 | -2.7 | 0.4 | . | . | . | -1.7 | -11.2
CCc1nnc(NC(=O)c2ccc(-c3cc(C(F)(F)F)ccc3Cl)o2)s1 | -8.1 | -2.2 | 4.0 | 9.5 | i | 22.2 | -2.8 | -1.3
CCOc1ccc(S(=O)(=O)N2CCN(S(=O)(=O)c3ccc(C(C)=O)cc3)CC2)cc1 | -18.8 | -3.6 | -1.7 | 11.1 | i | 7.0 | -12.0 | 0.7
O=S(=O)(c1ccc(=S)[nH]c1)N1CCN(Cc2ccccc2)CC1 | -9.5 | -2.0 | -0.8 | . | . | . | -2.0 | -4.5
CCN(CC)C(=O)C12C(=O)Oc3ccccc3C1C2(C)C(=O)c1ccc(F)cc1 (configuration not stated) | . | -3.5 | -0.5 | 12.4 | i | 3.9 | 4.9 | -13.9
CCn1cc(C(=O)NCC(=O)NC(C)(C)CO)c(=O)c2cc3c(cc21)OCO3 | -7.6 | 3.0 | 4.5 | -1.9 | i | -6.9 | -0.5 | -4.5
C=CCSc1nc2ccccc2[nH]1 | 7.8 | 2.8 | -0.3 | -3.6 | i | -5.9 | . | -3.6
COCCOC(=O)C1=C(C)NC2=C(C(=O)CC(c3cccs3)C2)C1c1ccsc1 (configuration not stated) | -8.5 | 0.6 | 0.6 | 32.0 | i | 5.5 | . | 4.9
CC(NC(=O)C12CC3CC(CC(C3)C1)C2)C(=O)N/N=C/C1=C(N2CCOCC2)C(=C\c2ccccc2)/CC1 (configuration not stated) | -14.7 | -26.0 | -22.7 | -6.9 | i | 0.7 | 24.9 | 3.6
Cc1ccc2cc3cc(C(=O)NCCCN4CC(C)CC(C)C4)oc3nc2c1 (configuration not stated) | -16.9 | 6.8 | 1.8 | -12.2 | i | 1.6 | 10.7 | 3.7
COc1ccc(C(=O)C23CC4CC(C2)CC(C(=O)c2ccc(OC)cc2)(C4)C3)cc1 | . | -5.2 | -11.6 | ? | . | 2.1 | 18.0 | 44.5
COc1ccc(NC2CCCCC2NS(=O)(=O)c2ccc(C)cc2)cc1 (configuration not stated) | 1.3 | 3.6 | -5.0 | -11.8 | i | -4.8 | 9.2 | -9.1
CCOC(=O)c1ccc(NC(=O)CNC(=O)C2CCCCC2)cc1 | -10.1 | 0.7 | -0.1 | -15.2 | i | -18.6 | . | -3.7

The last 2 entries of the part before open the next one.
SMILES | UUG fidelity | MT1-MMP act inh | MT1-MMP act inh RFP | PABP FP inh | Rce1 inhib | eIF4H FP inh | HIV Env fusion | CSC inhib | others
COc1ccc(NC2CCCCC2NS(=O)(=O)c2ccc(C)cc2)cc1 (configuration not stated) | 1.3 | 3.6 | -5.0 | -11.8 | i | -4.8 | 9.2 | -9.1
CCOC(=O)c1ccc(NC(=O)CNC(=O)C2CCCCC2)cc1 | -10.1 | 0.7 | -0.1 | -15.2 | i | -18.6 | . | -3.7
CC(Oc1cccc(Cl)c1)C(=O)Nc1ccccc1C(=O)N1CCCCC1 (configuration not stated) | -12.9 | -1.3 | -4.5 | . | i | . | 21.5 | -12.9
CCOC(=O)C(Cc1ccc(OC)c([N+](=O)[O-])c1)NC(=O)CCC(=O)Nc1ccc(C)cc1 (configuration not stated) | . | 0.8 | 5.9 | -2.0 | i | -10.9 | 9.9 | 14.9
CC(C)(C)NC(=O)CC1C(=O)NCCN1Cc1c(F)cccc1Cl (configuration not stated) | . | -2.7 | 2.3 | 2.5 | i | 0.0 | -21.7 | -7.2
Cn1cc(CNCCCn2ncc3ccccc32)c(-c2ccccc2F)n1 | . | -0.6 | -3.0 | -4.8 | i | -1.4 | 15.4 | 14.7
Nn1cc(-c2ccccc2)nc1SCC(=O)Nc1ccc(S(N)(=O)=O)cc1 | -22.0 | 5.1 | -1.7 | -5.6 | i | -12.9 | 17.8 | 0.7
Cc1cc(NC(=O)c2sc(Nc3cccc(C(F)(F)F)c3)nc2N)no1 | -18.6 | 7.8 | -7.6 | -5.1 | i | -4.1 | -11.8 | 18.1
Cn1c(=O)c2ccccc2n(Cc2ccccc2Cl)c1=O | -7.8 | 1.7 | -5.9 | 2.2 | . | 3.0 | 11.1 | -13.4
c1ccc(-c2ccc(-c3cnc4n3CCCCC4)cc2)cc1 | -9.4 | 1.6 | -4.0 | -11.8 | i | 8.3 | . | 15.9
Cc1c(CCC(=O)N[C@@H](C)C(=O)O)c(=O)oc2cc3occ(-c4ccccc4)c3cc12 | -22.4 | 2.0 | 7.2 | 9.1 | i | 6.7 | 8.3 | -6.7
CN(C)c1ccc(-c2csc(C(O)c3ccc(F)cc3)n2)cc1 (configuration not stated) | -10.5 | -1.0 | -6.8 | . | . | . | -112.2 | .
CCn1c(=O)c2cc(S(=O)(=O)NCCOc3ccccc3)ccc2n(CC)c1=O | -6.0 | 4.9 | -3.1 | 0.0 | i | 0.6 | 46.7 | 1.1
COC(=O)c1ccccc1NC(=O)Nc1cccnc1 | . | -1.5 | 1.3 | 3.5 | i | -3.0 | . | -12.0
O=C(Nc1ccccc1)Oc1cccc2cccnc12 | -5.4 | 2.8 | 1.6 | . | . | . | -11.0 | .
CCOc1ccc(CNS(=O)(=O)c2cc(CN3C(=O)c4cccnc4C3=O)ccc2OC)cc1 | -5.6 | -2.1 | -1.9 | -7.4 | i | -5.8 | -4.0 | -0.8
COc1cc(/C=C(/C(=O)c2cccs2)c2nc3ccccc3[nH]2)ccc1O | -13.1 | -22.5 | -3.4 | -6.8 | i | -4.6 | -132.0 | 60.9
CC(C)(C)CC(C)(C)c1ccc(O)c(CN2CCN(CCC#N)CC2)c1 | -14.1 | -12.7 | -11.9 | -3.7 | i | -7.6 | -15.0 | -5.2
CN(C)CCCN(Cc1cc2cc3c(cc2[nH]c1=O)OCO3)C(=S)NCc1ccco1 | -16.7 | -4.7 | 3.3 | ? | i | ? | 19.3 | 2.2
Cc1cccc(NC(=O)CCS(=O)(=O)c2ccc(Br)cc2)c1 | -33.4 | -2.7 | 2.9 | -11.3 | i | 5.6 | 7.0 | -3.7
O=[N+]([O-])c1nn(-c2ccc3c(c2)OCCO3)n(O)c1=Nc1ccc(Cl)cc1 | -17.0 | -6.1 | -11.2 | -7.3 | i | -6.6 | . | 18.1
O=[N+]([O-])c1ccc(Oc2ccc(S(=O)(=O)Nc3ccccc3)cc2)cc1 | -28.8 | -5.1 | -23.6 | -4.5 | i | -2.6 | . | 24.9
COc1cccc(C(=O)Nc2nnc(S(=O)(=O)Nc3cccc(C)c3)s2)c1 | 3.7 | 3.9 | 2.4 | 8.5 | i | 6.1 | . | 6.7
COc1ccc(-c2nn(-c3ccccc3)cc2C(=O)NC(=S)NNC(=O)c2ccncc2)cc1 | -34.6 | 1.5 | -7.4 | -17.5 | . | 23.3 | 32.3 | 22.6
CCN(C[C@H]1N[C@@](Cc2ccccc2)(C(=O)OC)[C@H]2C(=O)N(Cc3ccccc3)C(=O)[C@@H]12)C(=O)Nc1ccc(C)cc1 | -19.8 | -0.8 | -9.1 | . | . | . | -45.5 | .
CCn1c(=S)sc2nc(C)sc21 | 3.8 | 0.6 | -0.1 | . | i | . | -109.8 | .
Cn1c(N)c(C(=O)COC(=O)C2=COCCO2)c(=O)n(C)c1=O | . | 3.4 | 2.6 | 5.0 | i | -0.2 | . | .
CCOc1ccc(-c2cc(C(=O)NCc3ccc(C(F)(F)F)cc3)[nH]n2)c(C)c1 | -30.1 | 2.9 | -0.2 | . | . | . | 11.8 | .
